VDR inhibitor = blocks the human vitamin D receptor; P11473; VDR-SRC2-3 peptide fluorescence polarization, 2 h; Potency, µM, for inactives: max response, negative = inhibition, usual class: inhibitors; 400,000 tested, 0.93% active; AID 504847; active = well fitted inhibition curve with a large enough effect; inconclusive = small, poorly fitted or top-dose-only effect, or another doubt; inactive = no such curve, though single readings can be large or run the other way; also: series mostly up to about 120 µM
Target sequence (P11473 whole entry, looked up): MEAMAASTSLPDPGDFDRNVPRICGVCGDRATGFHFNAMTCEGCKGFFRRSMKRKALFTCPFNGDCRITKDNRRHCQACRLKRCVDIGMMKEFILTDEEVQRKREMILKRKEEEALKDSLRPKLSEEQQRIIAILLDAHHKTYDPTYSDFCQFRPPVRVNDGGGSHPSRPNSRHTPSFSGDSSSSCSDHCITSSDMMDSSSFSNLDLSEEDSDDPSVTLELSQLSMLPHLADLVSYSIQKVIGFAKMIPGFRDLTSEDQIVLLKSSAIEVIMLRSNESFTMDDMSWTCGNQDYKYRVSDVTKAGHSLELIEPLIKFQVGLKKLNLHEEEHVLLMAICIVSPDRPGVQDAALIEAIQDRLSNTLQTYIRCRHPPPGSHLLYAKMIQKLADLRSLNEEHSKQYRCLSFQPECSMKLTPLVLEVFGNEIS
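Measured by FP: displacement of SRC2-3 coactivator peptide from VDR by library compounds, following a two-hour ambient incubation.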
* marks the source's active call; other numbers are inactive results; & = joins results of further samples; [ ] = remark or other dose. % is scaled to controls: 0 for no effect and ±100 for the full control effect; potency is read from the fitted curve at half-maximal effect. This is a subset; the hit share may differ from the screen's.

The first 2 records (preview)
For CCOC(=O)C1(CC2CCCCO2)CCN(Cc2nccn2-c2ccc(OC)cc2)CC1 (stereo not drawn) the results were VDR inhibitor 16%.
CCOC(=O)C1=C(CC)Nc2ccccc2N/C1=N\S(=O)(=O)c1cccc(C(C)=O)c1 was read as VDR inhibitor -10%.

The list itself, from the first entry:
For CCOC(=O)C1(CC2CCCCO2)CCN(Cc2nccn2-c2ccc(OC)cc2)CC1 (stereo not drawn) the results were VDR inhibitor 16%.
CCOC(=O)C1=C(CC)Nc2ccccc2N/C1=N\S(=O)(=O)c1cccc(C(C)=O)c1 was read as VDR inhibitor -10%.
For Cc1cc(OCC(=O)N2CCN(c3ccccc3)CC2)c2c(C)cc(=O)oc2c1 the results were VDR inhibitor -1%.
Screening COc1cccc(CN2CCNC(=O)C2CC(=O)NCCn2cccn2)c1OC (stereo not drawn) returned VDR inhibitor 4%.
`CCCNC(=O)C1CN(S(=O)(=O)c2ccccc2)CCN1S(=O)(=O)c1ccccc1` (stereo not drawn) gave VDR inhibitor -10%.
Screening Nc1nc(SCC(=O)Nc2cc(Cl)ccc2Cl)n[nH]1 returned VDR inhibitor -10%.
`Nc1cc2c(cc1Cl)-c1ccc([N+](=O)[O-])cc1C2=NO` gave VDR inhibitor 3%.
For C=CCn1c(SCC(=O)NC(=O)NCc2ccco2)nc2sc(CC)cc2c1=O the results were VDR inhibitor -2%.
Cc1cccc(N(C(=O)c2csnn2)C(C(=O)NCc2ccccc2)c2cccs2)c1 (stereo not drawn) was read as VDR inhibitor 4%.
CCOC(=O)n1c(=O)n(Cc2ccccc2Cl)c2ccccc21 was read as VDR inhibitor -2%.
Screening COc1ccc(-c2nc(CSc3nncn4c3cc3oc(C)cc34)c(C)o2)cc1 returned VDR inhibitor -2%.
Screening COc1ccccc1C(O)(C(=O)NNc1cccc(C)c1)c1ccccc1OC returned VDR inhibitor -5%.
`CC(C)n1c(=NC(=O)c2ccco2)c(C#N)cc2c(=O)n3ccccc3cc21` gave VDR inhibitor -19%.
CCOc1ccc(NC(=O)CSc2nnnn2C2CC2)cc1S(=O)(=O)N1CCCC1 was read as VDR inhibitor -14%.
Screening O=c1/c(=C\c2cccn2-c2ccccc2)sc2nc3ccccc3n12 returned VDR inhibitor 7%.
`Cc1sc2ncnc(NCc3ccco3)c2c1C` gave VDR inhibitor -8%.
For Cc1ccc(OCCCC(=O)Nc2sc3c(c2C(N)=O)CCCC3)cc1 the results were VDR inhibitor inconclusive.
`CC1(C)CC(=O)C2=C(C1)NCN(Cc1ccc3c(c1)OCO3)C2` gave VDR inhibitor -8%.
For O=C(N/N=C/c1c[nH]c2ccccc12)c1cc(-c2ccc3ccccc3c2)n[nH]1 the results were VDR inhibitor 8%.
O=C(NCc1cccs1)C(=O)NCC1OCCCN1S(=O)(=O)c1cc(F)ccc1F (stereo not drawn) was read as VDR inhibitor -7%.
`CCn1c(SCc2ccccc2)nc2cc(OC)c(OC)cc2c1=O` gave VDR inhibitor -11%.
Screening COc1ccc(S(=O)(=O)N(C)CC(=O)Nc2ccc(C(F)(F)F)cc2)cc1Cl returned VDR inhibitor -5%.
COc1ccccc1Oc1ccc(N/C=C/C(=O)c2ccco2)cc1 was read as VDR inhibitor 0%.
Screening COC(=O)NC1(C(=O)O)CCCC1 returned VDR inhibitor 108%[activator].
COc1ccc(CC(=O)O/N=C(\N)Cc2ccc(OC)c(OC)c2)cc1 was read as VDR inhibitor -1%.
Screening COc1ccc(N(CC(=O)NC2CCCC2)C(=O)c2ccc(N3CCCCC3)nc2)cc1 returned VDR inhibitor -19%.
O=C(CCCn1c(=O)c2cccn2c2ccccc21)Nc1cc(C(F)(F)F)ccc1Cl was read as VDR inhibitor -3%.
Screening COc1cccc(Cn2c(=O)c(CCc3ccccc3)nc3cncnc32)c1 returned VDR inhibitor -2%.
CS(=O)(=O)c1ccc(NC(=O)c2cccc(S(=O)(=O)N3CCN(Cc4ccccc4)CC3)c2)cc1 was read as VDR inhibitor -9%.
For Cc1cccc(-c2cc(=O)c3cc(C)ccc3o2)c1 the results were VDR inhibitor -22%.
`CC1(C)Cc2ccccc2C(NNC(=O)c2ccc(Br)o2)=N1` gave VDR inhibitor 10%.
CCOC(=O)C1=C(C(F)(F)F)Nc2ncnn2C1c1cc(OC)ccc1OC (stereo not drawn) was read as VDR inhibitor inconclusive.
Screening CCc1ccc(-c2nc(CSCC(=O)NCCCN3CCCC3=O)c(C)o2)cc1 returned VDR inhibitor 2%.
For NS(=O)(=O)c1ccc(OC(=O)CNC(=O)OCc2ccccc2)cc1 the results were VDR inhibitor inconclusive.
Cc1ccc(OC(=O)CCC(=O)Nc2ccc(Br)cc2)cc1 was read as VDR inhibitor 4%.
Cc1cccc(C(=O)Nc2nnc(S(=O)(=O)N(C)c3ccccc3C)s2)c1 was read as VDR inhibitor -7%.
`COc1ccc(-c2cc(C(=O)N(C)Cc3ccc(OC)c(OC)c3OC)c3ccccc3n2)cc1OC` gave VDR inhibitor 1%.
COc1cc(OC)cc(C(=O)NCC(=O)OCc2ccc(Cl)c(Cl)c2)c1 was read as VDR inhibitor 14%.
COc1ccc(S(=O)(=O)Nc2nnc(C(C)(C)C)s2)cc1 was read as VDR inhibitor inconclusive.
O=C(NCCC1CCCCN1S(=O)(=O)c1ccccc1)C(=O)Nc1ccc(F)cc1F (stereo not drawn) was read as VDR inhibitor -1%.
Screening COc1ccc2nc(C)cc(SCC(=O)N/N=C/c3ccc(O)cc3O)c2c1 returned VDR inhibitor -2%.
`CN(C)C(CNC(=O)c1ccc2c(=O)n(-c3ccccc3F)c(=S)[nH]c2c1)Cc1ccccc1` (stereo not drawn) gave VDR inhibitor -19%.
Screening CC(C)CC(=O)c1c[nH]c(C(=O)NCCCN2CCOCC2)c1 returned VDR inhibitor 17%.
For CCCCN1C(=O)C(=O)N(CC(=O)c2ccc3c(c2)CCCC3)C1=O the results were VDR inhibitor -6%.
O=C(O)C1C2C=CC(C2)C1C(=O)OCC1CCCO1 (stereo not drawn) was read as VDR inhibitor 3%.
Screening C/C(CCc1ccccc1)=N\NC(=S)NCCc1ccccc1 returned VDR inhibitor 4%.
For CCOc1nc(NCCC2=CCCCC2)nc(N2CCOCC2)n1 the results were VDR inhibitor -16%.
`Cc1cc(C)cc(NC(=O)N2CCC(CN3CCOCC3)CC2)c1` gave VDR inhibitor 4%.
Screening Cc1ccccc1-c1noc(CSc2nnc(-c3ccncc3)n2-c2ccc(F)cc2)n1 returned VDR inhibitor 11%.
Screening Nc1nc(-c2ccccc2)cn1/N=C/c1ccccc1 returned VDR inhibitor -19%.
For Cc1ccccc1CSc1ccc(-c2ccc3c(c2)OCO3)nn1 the results were VDR inhibitor -2%.
`Cc1cc(C)n(C(=O)Cn2nc(C)c(Br)c2C)n1` gave VDR inhibitor -9%.
Oc1cccc(C(O)CNCc2ccc(OCc3ccc(Cl)cc3Cl)cc2)c1 (stereo not drawn) was read as VDR inhibitor 7%.
COc1ccc(OC)c(C2C3=C(N=C4SCC(=O)N42)c2ccccc2CC3)c1 (stereo not drawn) was read as VDR inhibitor 13%.
`CN(C(=O)COC(=O)CSc1cc(Cl)ccc1Cl)c1c(N)n(Cc2ccccc2)c(=O)[nH]c1=O` gave VDR inhibitor -15%.
Screening O=C(O)c1cccnc1SCc1ccc([N+](=O)[O-])cc1 returned VDR inhibitor -13%.
Screening N/C(=N\OS(=O)(=O)c1cccc([N+](=O)[O-])c1)c1ccncc1 returned VDR inhibitor 1%.
`Cc1ccc(S(=O)(=O)N2[C@@H](c3cccc(Cl)c3)C(C(=O)O)=CC[C@H]2c2ccc(C(C)C)cc2)cc1` gave VDR inhibitor -21%.
`Cc1cccc(NC(=O)Cn2nnc3sc4c(c3c2=O)CC(C)(C)OC4)c1` gave VDR inhibitor -8%.
Screening c1coc(CNc2nc(N3CCCCC3)nc3ccccc23)c1 returned VDR inhibitor 6%.
`Cc1cc(OCC(=O)Nc2nnc(C3CC3)s2)ccc1C(C)C` gave VDR inhibitor 4%.
CN(C)CCNc1nc2c(c(=O)[nH]c(=O)n2C)n1CC(O)COc1ccc(Cl)cc1Cl (stereo not drawn) was read as VDR inhibitor 0%.
For COCCCNC(=O)c1ccc(Cn2c(=O)[nH]c3ccccc3c2=O)cc1 the results were VDR inhibitor -2%.
`O=C(c1cc(Br)c(Br)s1)N1CCOCC1` gave VDR inhibitor -13%.
For Cc1ccc(NC(=O)C2CCCCC2C(=O)O)cc1Cl (stereo not drawn) the results were VDR inhibitor -24%.
Screening C=CCn1nnnc1SCC(=O)Nc1ccccc1C(=O)OC returned VDR inhibitor -10%.
Screening O=C(NCc1cccs1)C1CCN(S(=O)(=O)c2ccc3c(c2)OCCO3)CC1 returned VDR inhibitor -6%.
For CCn1cc(CNC(=O)C2CCC(=O)N(Cc3ccc(Cl)cc3)C2)cn1 (stereo not drawn) the results were VDR inhibitor -3%.
For O=C(CCNS(=O)(=O)c1ccc2nsnc2c1)N1CCN(c2ccncc2)CC1 the results were VDR inhibitor 4%.
Screening Cn1cc(Cl)c(C(=O)NNC(=S)NC2CCCCC2)n1 returned VDR inhibitor -2%.
CNC(=S)NNC(=O)c1ccc(=O)n(Cc2ccc(Cl)cc2Cl)c1 was read as VDR inhibitor -16%.
`Cc1cccc(Cn2c(=O)n3nc(-c4ccccc4)nc3c3ccccc32)c1` gave VDR inhibitor -8%.
Screening CC1=C(C(N)=O)C(c2ccc(Cl)cc2)NC(=O)N1 (stereo not drawn) returned VDR inhibitor 0%.
Screening O=C(Nc1cc2c(cc1Cl)-c1ccc([N+](=O)[O-])cc1C2=NO)C(F)(F)F returned VDR inhibitor -5%.
`C/C(=N\NC(=O)c1ccc2ccccc2c1)c1cccs1` gave VDR inhibitor 2%.
For COc1ccc(C(=O)CSc2nc3ccccc3n2CC(=O)NC(C)(C)C)cc1 the results were VDR inhibitor 14%.
For NCCCC[C@H]1CNC(=O)C(=O)N1CCC12CC3CC(CC(C3)C1)C2 the results were VDR inhibitor 5%.
`O=C(Oc1ccc(-c2cn3c(n2)SCC3)cc1)c1ccccc1` gave VDR inhibitor inconclusive.
Nc1c(C(=O)Nc2ccc(C(F)(F)F)cc2)sc2nc(-c3cccs3)ccc12 was read as VDR inhibitor -1%.
O=C(Nc1ccc(S(=O)(=O)N2CCC(c3nc4ccccc4s3)CC2)cc1)c1ccc(F)cc1 was read as VDR inhibitor 11%.
`CC[C@]12c3[nH]c4ccc(Cl)cc4c3CCN1C(=O)[C@@H](CC(=O)NC/C=C(\C)CCC=C(C)C)C[C@@H]2C(=O)N1CCN(C(=O)c2ccco2)CC1` gave VDR inhibitor 1%.
Screening CN(C)C(=S)c1ccccc1 returned VDR inhibitor inconclusive.
`CCN(c1ccccc1)S(=O)(=O)c1ccc(Cl)c(NC(=O)CNCc2ccccc2OC)c1` gave VDR inhibitor 4%.
Screening O=C(Nc1ccccc1N1CCOCC1)c1cccc([N+](=O)[O-])c1 returned VDR inhibitor -23%.
For CS(=O)(=O)c1ncc(Cl)c(C(=O)Nc2ccc(N3CCOCC3)cc2)n1 the results were VDR inhibitor -70%.
For CC(C)NC(=O)C1c2ccccc2Oc2ccccc21 the results were VDR inhibitor -6%.
Cc1cc(=O)[nH]c(NN)n1 was read as VDR inhibitor -19%.
`CCOC(=O)C1=C(O)C(=O)N(Cc2ccccc2)CC1` gave VDR inhibitor -20%.
O=S(=O)(c1ccccc1Br)N(CC(O)COCc1ccccc1)C1CC1 (stereo not drawn) was read as VDR inhibitor 3%.
COc1ccc(-c2cc(C(=O)N3CCN(C(=O)c4ccccc4F)CC3)[nH]n2)cc1 was read as VDR inhibitor 7%.

Structural class: the entries above with a tert-butyl group
COc1ccc(S(=O)(=O)Nc2nnc(C(C)(C)C)s2)cc1 was read as VDR inhibitor inconclusive.
For COc1ccc(C(=O)CSc2nc3ccccc3n2CC(=O)NC(C)(C)C)cc1 the results were VDR inhibitor 14%.

(listing goes on)
`FC(F)(F)c1cc(Oc2ccc(Cl)cc2)ncc1-c1nnc(-c2ccc(Cl)cc2)o1` gave VDR inhibitor -7%.
`CC(C)(C)C1CCc2c(sc3nnn(CCOc4ccccc4)c(=O)c23)C1` (stereo not drawn) gave VDR inhibitor 12%.
For CS(=O)(=O)N1CCN(Cc2ccc([N+](=O)[O-])cc2)CC1 the results were VDR inhibitor 12%.
For CC(C)CNC(=O)c1ccccc1N(Cc1ccccc1)S(C)(=O)=O the results were VDR inhibitor -5%.
For Cc1ccc(NC(=O)c2cccc(NC(=O)N3CCSc4ncccc43)c2)cc1Cl the results were VDR inhibitor 17%.
Screening CCOC(=O)C1(Cc2ccc(O)cc2)NC(c2ccccc2F)C2C(=O)N(C)C(=O)C21 (stereo not drawn) returned VDR inhibitor 13%.
`COc1ccc(OCC(=O)Nc2cc(-c3nc4ccccc4o3)ccc2Cl)cc1` gave VDR inhibitor 1%.
CCc1nn(CCCC(=O)NCc2cc(Br)ccc2OC)c(=O)c2cc3occc3n12 was read as VDR inhibitor 7%&4%.
O=C(NCC(c1ccco1)N1CCN(c2ccccc2)CC1)C(=O)NC1CCCC1 (stereo not drawn) was read as VDR inhibitor -12%.
COc1cc(NC(=S)N2CCN(S(=O)(=O)c3ccc(C)cc3)CC2)cc(OC)c1 was read as VDR inhibitor -15%.
For CC1(C)Cc2c(sc(NC(=O)C(=O)N3CCCC3)c2C(=O)O)CO1 the results were VDR inhibitor 2%.

Structures shown so far containing a CF3 group:
Screening COc1ccc(S(=O)(=O)N(C)CC(=O)Nc2ccc(C(F)(F)F)cc2)cc1Cl returned VDR inhibitor -5%.
O=C(CCCn1c(=O)c2cccn2c2ccccc21)Nc1cc(C(F)(F)F)ccc1Cl was read as VDR inhibitor -3%.
CCOC(=O)C1=C(C(F)(F)F)Nc2ncnn2C1c1cc(OC)ccc1OC (stereo not drawn) was read as VDR inhibitor inconclusive.
Screening O=C(Nc1cc2c(cc1Cl)-c1ccc([N+](=O)[O-])cc1C2=NO)C(F)(F)F returned VDR inhibitor -5%.
Nc1c(C(=O)Nc2ccc(C(F)(F)F)cc2)sc2nc(-c3cccs3)ccc12 was read as VDR inhibitor -1%.
`FC(F)(F)c1cc(Oc2ccc(Cl)cc2)ncc1-c1nnc(-c2ccc(Cl)cc2)o1` gave VDR inhibitor -7%.

Source: PubChem BioAssay (National Center for Advancing Translational Sciences (NCATS))
